EPAC1 ag val – human EPAC1 agonism, validation; O95398; EPAC1 Rap1b BODIPY-GDP exchange, fluorescence; Potency, µM, for the others: max response, positive = active, actives largely listed as activators; actives 1% (n = 16,000); AID 1645883; active means well fitted activation curve with a large enough effect; inconclusive means small, poorly fitted or top-dose-only effect; inactive means no such curve, though single readings can be large or run the other way;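 further: nearly all actives have a fitted effect of over 70% in size; series mostly up to about 76 or 150 µM; scaled to a cAMP control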
Target sequence (O95398 whole entry, looked up): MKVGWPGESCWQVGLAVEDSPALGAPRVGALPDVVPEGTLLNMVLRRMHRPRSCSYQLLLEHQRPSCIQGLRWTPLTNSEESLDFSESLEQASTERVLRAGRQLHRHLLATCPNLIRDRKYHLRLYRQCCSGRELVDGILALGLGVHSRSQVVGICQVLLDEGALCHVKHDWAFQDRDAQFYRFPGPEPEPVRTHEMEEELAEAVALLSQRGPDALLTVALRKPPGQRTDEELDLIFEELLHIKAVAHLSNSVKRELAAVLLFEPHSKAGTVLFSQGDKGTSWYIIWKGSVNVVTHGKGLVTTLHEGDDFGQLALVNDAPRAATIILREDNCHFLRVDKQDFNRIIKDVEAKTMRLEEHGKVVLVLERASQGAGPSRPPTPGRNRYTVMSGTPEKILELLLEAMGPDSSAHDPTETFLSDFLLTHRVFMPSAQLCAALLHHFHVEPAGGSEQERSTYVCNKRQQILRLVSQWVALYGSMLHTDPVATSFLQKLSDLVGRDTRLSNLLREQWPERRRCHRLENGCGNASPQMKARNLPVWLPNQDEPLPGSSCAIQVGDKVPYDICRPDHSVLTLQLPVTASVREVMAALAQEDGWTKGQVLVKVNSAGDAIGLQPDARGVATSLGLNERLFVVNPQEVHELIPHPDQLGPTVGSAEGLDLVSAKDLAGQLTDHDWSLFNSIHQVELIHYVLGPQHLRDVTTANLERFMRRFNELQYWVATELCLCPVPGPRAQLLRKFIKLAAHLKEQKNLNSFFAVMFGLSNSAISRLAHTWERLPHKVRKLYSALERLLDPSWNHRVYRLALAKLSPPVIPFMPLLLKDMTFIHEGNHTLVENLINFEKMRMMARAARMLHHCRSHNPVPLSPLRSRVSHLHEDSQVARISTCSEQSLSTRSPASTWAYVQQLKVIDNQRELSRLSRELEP
* marks the source's active call; other numbers are inactive results; ? = inconclusive; & = joins results of further samples; [ ] = remark or other dose. On the % scale 0 is the no-effect control and ±100 the full control effect; potency means the concentration at half of the fitted maximal effect. These rows are one share of the data; rates above refer to the full screens.

SMILES	EPAC1 ag val
Oc1cc[c]([Hg][Cl])cc1	0%&-6%
CC1OC(C)OC(C)O1 (stereo unspecified)	-28%&-8%
CC(C)(C)[C@]1(O)C[C@@H]2OC(=O)C[C@@]23C(=O)O[C@@H]2OC(=O)[C@H](O)[C@]213	-7%
c1cc2c(cc1[C@H]1OC[C@@H]3[C@H]1CO[C@H]3c1ccc3c(c1)OCO3)OCO2	25%
CCOP(=O)(OCC)O/C(=C/Cl)c1ccc(Cl)cc1Cl	-10%
CCCCNC(C)(C)[P+](=O)O	-4%
CCOC(=O)[C@]12Cc3cc(OC)ccc3[C@H]1N(Cc1ccccc1)C(=O)c1ccccc12	-7%
COc1cc(C[C@@H](C)N)c(OC)cc1Br	-14%
CCCC1CCCCN1 (stereo unspecified)	-26%
CN1C(=O)COc2c(C(=O)NC3CN4CCC3CC4)cc(Cl)cc21 (stereo unspecified)	-12%
O=C(Cc1ccc(Cl)c(Cl)c1)N1CCCC[C@H]1CN1CCCC1	14%
CC1CC[C@]2(NC1)OC1CC3C4CC=C5CC(O)CC[C@@]5(C)C4CC[C@]3(C)C1C2C (stereo partly specified)	?
O=S(=O)(O)C(F)(F)C(F)(F)C(F)(F)C(F)(F)F	?
NC(=O)c1cc(N2CC2)c([N+](=O)[O-])cc1[N+](=O)[O-]	-11%
C=C(C)[C@H]1CN[C@H](C(=O)O)[C@@H]1CC(=O)O	-11%
CCNc1nc(Cl)nc(NCC)n1	-9%
CCOC(=O)c1cncn1[C@H](C)c1ccccc1	4%
O=C(N[C@H]1CN2CCC1CC2)c1ccc(Cl)cc1	-6%
O=C(O)/C=C\CO	-9%
CCCSc1cc(OC)c(CCN)cc1OC	-12%
O=NN1CCCC1c1cccnc1 (stereo unspecified)	-14%
CCCN1CCc2cccc3c2C1Cc1ccc(O)c(O)c1-3 (stereo unspecified)	-8%
CN1C2CCC1CC(C(=O)OC(CO)c1ccccc1)C2 (stereo unspecified)	0%
NN=C(N)N	1%&6%&26%&-18%
N[C@@H](Cn1oc(=O)[nH]c1=O)C(=O)O	2%&-62%&-22%
[O]=[Cd]	6%
O=C(O)[C@@H]1Cc2[nH]cnc2C(c2cccnc2)N1 (stereo partly specified)	-3%
C[C@@H](Cc1cccc(C(F)(F)F)c1)NCCCc1ccccc1	-11%
N#CC1(N2CCCCC2)CCCCC1	-2%
C[C@]1(C(=O)O)CCC[C@]2(C)c3cc(O)ccc3CC[C@@H]12	13%
CC[C@@H](CO)NC(=O)[C@H]1C=C2c3cccc4c3c(cn4C)C[C@H]2N(C)C1	9%
COC(=O)C1=CO[C@@H](C)[C@@H]2CN3CCc4c([nH]c5cc(OC)ccc45)[C@@H]3C[C@H]12	-12%
CC(C)=CCOc1c2occc2cc2ccc(=O)oc12	?
COC(=O)/C=C\C(=O)N[C@@H]1CC[C@@]2(O)[C@H]3Cc4ccc(O)c5c4[C@@]2(CCN3CC2CC2)[C@@H]1O5	-8%
Oc1ccc2c3c1O[C@H]1c4c(c5ccccc5n4Cc4ccccc4)C[C@]4(O)[C@H](C2)N(CC2CC2)CC[C@@]314	10%
CCN1C[C@]2(C)CC[C@H](OC)[C@@]34[C@H]1C1(OCO[C@@]15C[C@H](OC)C1C[C@]3(O)C5[C@H]1OC)[C@@H](O)[C@H]24	-19%
O=C(Oc1ccccc1)N1CCC2(CC1)CN(Cc1ccncc1)C2	?
S=C=Nc1cccc(C2(N3CCCCC3)CCCCC2)c1	-13%
NC(CCP(=O)(O)O)C(=O)O (stereo unspecified)	2%&-9%
CCOc1ccc2c3c1O[C@H]1[C@@H](O)C=C[C@H]4[C@@H](C2)N(C)CC[C@@]341	22%
c1ccc(C2CC2)c(OCC2=NCCN2)c1	4%&-16%&-23%&-3%
COc1ccc2c(c1)[nH]c1c(C)nccc12	?
C[N+]1([O-])CCC[C@@H]1c1cccnc1 (stereo partly specified)	-7%
COc1ccccc1CN1CCCC2(CCN(C(=O)Oc3ccccc3)CC2)C1	-56%[inhibitor]
O=C1CN=C(c2ccccc2)c2cc(Cl)ccc2N1	14%
S=C=S	-38%[inhibitor]
Nc1c(Cl)c(Cl)c(Cl)c(Cl)c1Cl	14%
C[C@@]12C=CC(=O)C=C1CCC1C2CC[C@]2(C)C(=O)CCC12 (stereo partly specified)	-19%
C[C@]12C[C@H]3S[C@H]3C[C@@H]1CC[C@@H]1[C@@H]2CC[C@]2(C)[C@@H](O)CC[C@@H]12	-5%
CCCC[N+]1(C)[C@@H]2CC(OC(=O)[C@H](CO)c3ccccc3)C[C@H]1[C@@H]1O[C@@H]12 (stereo partly specified)	-22%
C=C(C)[C@H]1O[C@H]2CC[C@@]3(C)[C@@](O)(CC[C@H]4[C@@H]5OC(C)(C)[C@H]6C[C@@H]7C(=C)Cc8c(Cl)cc9[nH]c(c5c9c8[C@@]76O)[C@@]43C)[C@]23O[C@@H]3[C@H]1O	-1%
CN1CC[C@@H]2CN3CCc4cccc(c43)[C@H]2C1	5%
CN(CCc1ccc(Cl)c(Cl)c1)[C@@H]1CCCC[C@@H]1N1CCCC1	-5%
CC(=O)c1c(O)c(C)c(O)c(Cc2c(O)c3c(c(C(=O)/C=C\c4ccccc4)c2O)OC(C)(C)C=C3)c1O	18%
c1cncc(C2CCCN2)c1 (stereo unspecified)	-6%
CCCC[C@@H](C)[C@@H](OC(=O)C[C@@H](CC(=O)O)C(=O)O)[C@H](C[C@@H](C)C[C@H](O)CCCC[C@@H](O)C[C@H](O)[C@H](C)N)OC(=O)C[C@H](CC(=O)O)C(=O)O	-14%
CC(=O)OC1CC2C(C)(C)C(O)C=C[C@@]2(C)C2CC[C@]3(C)C(=CC(=O)OC3c3ccoc3)[C@]12C (stereo partly specified)	-19%
C[C@@H](Cc1ccccc1)NCCC(c1ccccc1)c1ccccc1	1%
C=CCN=C=S	-41%[inhibitor]
CCC/C=C/C=C/C(=O)O[C@H]1/C(=C/C(=O)OC)C[C@H]2C[C@H]([C@@H](C)O)OC(=O)C[C@H](O)C[C@@H]3C[C@H](OC(C)=O)C(C)(C)[C@](O)(C[C@@H]4C/C(=C/C(=O)OC)C[C@H](/C=C/C(C)(C)[C@]1(O)O2)O4)O3	-78%[inhibitor]
(continued)
SMILES	EPAC1 ag val
CCCCCCC[n+]1ccc(-c2cc[n+](CCCCCCC)cc2)cc1	0%
CCCN(CCC)C1CCc2ccc(O)cc2C1 (stereo unspecified)	3%&-19%
C[C@@H](Cc1ccccc1)N(C)C	-13%
CC(C)CCON=O	-14%
CCCC(C)C1(CC)C(=O)NC(=O)NC1=O (stereo unspecified)	-1%
CC[C@@H](CO)NC(=O)[C@@H]1C=C2c3cccc4c3c(cn4C)C[C@H]2N(C)C1	0%&-33%
O=c1[nH]cc(N(CCCl)CCCl)c(=O)[nH]1	-6%
N#CC(C#N)=Cc1ccc(O)c(O)c1	3%&-9%&-13%&-4%
CCS(=O)CCSP(=O)(OC)OC (stereo unspecified)	-37%
CCN(CC)CCO[C@H]1CC[C@@]2(C)C(=CC[C@@H]3[C@@H]2CC[C@]2(C)C(=O)CC[C@@H]32)C1	23%
C[C@]12CCC(=O)C(O)=C1CC[C@@H]1[C@H]3CCC(=O)[C@@]3(C)CC[C@@H]12	-5%
O=c1c(O)c(-c2ccc(O)c(O)c2)oc2c(O)c(O)cc(O)c12	20%
CCC(C)C(=O)OC1C[C@@]2(C)C(c3ccoc3)OC(=O)CC23OC2(C)OC34C(OC(=O)C(C)C)[C@]3(O)C(OC(=O)C5(C)OC5C)[C@]5(C)CC3(O)[C@](C)(C5CC(=O)OC)C14O2 (stereo partly specified)	-34%[inhibitor]
C/C=C1/CN2CC[C@]34C(=C(C=O)[C@@H]1C[C@H]23)Nc1c(O)cccc14	11%
C[C@]12CC[C@H](OS(=O)(=O)O)CC1=CC[C@@H]1[C@@H]2CC[C@]2(C)C(=O)CC[C@@H]12	8%
COC(=O)[C@@H](N)CCCN=C(N)N[N+](=O)[O-]	-5%&6%
CNCC/C=C\c1cccnc1	-28%
O=c1oc2ccccc2c(O)c1C(c1ccccc1O)c1c(O)c2ccccc2oc1=O	-16%
CCCCCCCCOC(=O)c1ccccc1C(=O)OCCCCCCCC	-14%
N[C@H](Cc1o[nH]c(=O)c1Cl)C(=O)O	-2%
CCOC(=O)[C@]12Cc3cc(OC)c(OC)cc3[C@H]1N(Cc1ccccc1)C(=O)c1ccccc12	-42%[inhibitor]
CC(C)(N)Cc1ccc(Cl)cc1	7%
O=C(CCl)c1ccc(Oc2ccc(C(=O)CCl)cc2)cc1	-15%
CC(Cc1cccc(C(F)(F)F)c1)NCCCc1ccccc1 (stereo unspecified)	-27%
CC(C)=CC1C(C(=O)OCN2C(=O)C3=C(CCCC3)C2=O)C1(C)C (stereo unspecified)	10%
C/C=C1/C[C@@H](C)[C@](O)(CO)C(=O)OCC2=CCN3CC[C@@H](OC1=O)C23 (stereo partly specified)	-10%
O=C(O)/C=C\C(=O)O	0%
CCC1(c2ccccc2)C(=O)NC(=O)N(C)C1=O (stereo unspecified)	-33%[inhibitor]
C=CCc1ccc2c(c1)OCO2	-3%
Cc1ccc(C[N+](C)(C)C)o1	-23%&21%&7%
CC(C)[C@@]1(NC(=O)[C@@H]2C[C@H]3c4cccc5[nH]cc(c45)C[C@@H]3N(C)C2)O[C@@]2(O)[C@H]3CCCN3C(=O)[C@H](Cc3ccccc3)N2C1=O	-13%&-28%
CN1Cc2c(ccc3c2OCO3)C2C(O)Cc3cc4c(cc3C21)OCO4 (stereo unspecified)	-8%&11%
CCN1C[C@@]2(COC)C3[C@@H](OC)C4[C@@H]1[C@@]3(C1C[C@@]3(O)[C@H](OC(=O)c5ccccc5)C1[C@]4(OC(C)=O)[C@@H](O)[C@@H]3OC)[C@@H](OC)C[C@H]2O (stereo partly specified)	-4%
CCOP(=S)(OCC)Oc1ccc2c(C)c(Cl)c(=O)oc2c1	-46%
COc1cc(CCN)cc(OC)c1OC	-25%
COc1ccc(CC2NC[C@H](O)[C@H]2OC(C)=O)cc1 (stereo partly specified)	10%
CC(C)(C)C(=O)C(Oc1ccc(Cl)cc1)n1cncn1 (stereo unspecified)	-5%
O=C1c2ccccc2C(=O)c2ccccc21	?
CCCCCCCCCCCCCCCCOC[C@H](COP(=O)([O-])OCC[N+](C)(C)C)OC(C)=O	-19%
Nc1ncnc2c1ncn2[C@@H]1O[C@H](COP(=O)(O)CP(=O)(O)O)[C@@H](O)[C@H]1O	-12%

An excerpt of these results, field by field.
CNCC/C=C\c1cccnc1
  EPAC1 ag val: -28%

O=C(O)/C=C\CO
  EPAC1 ag val: -9%

Additional entries:
SMILES	EPAC1 ag val
CN1CC[C@@]23CCCC[C@@H]2[C@@H]1Cc1ccc(O)cc13	7%
NC(CP(=O)(O)O)C(=O)O (stereo unspecified)	-5%&-7%
CC(=O)O[C@H]1CC[C@H]2[C@@H]3CCC4=CC(=O)CCC4=C3C=C[C@]12C	-21%
CCCC(=O)OC(C(Cl)(Cl)Cl)P(=O)(OC)OC (stereo unspecified)	8%
C[N+]1(C)C2CCC1CC(OC(=O)c1c[nH]c3ccccc13)C2 (stereo unspecified)	12%
Cc1nc(N)sc1CCN	1%&0%
COP(=S)(OC)Oc1ccc(Sc2ccc(OP(=S)(OC)OC)cc2)cc1	12%
CC(C)(C)NC[C@H](O)c1ccc(O)cc1Cl	15%
O=C(O)CNCP(=O)(O)O	?
Ic1cncc(OC[C@@H]2CCN2)c1	-22%
O=C(O)C(Cl)Cl	11%&6%
O=[N+]([O-])c1ccc(O[C@@H]2O[C@H](CO)[C@@H](O)[C@H](O)[C@H]2F)c([N+](=O)[O-])c1	2%
CC(C)(C)NC[C@H](O)COc1cccc2[nH]c(C#N)cc12	-6%
O=C(O)CC[N+](=O)[O-]	-3%&9%
CNc1ccc2oc(C[C@@H]3OC4(CC[C@@H]3C)O[C@H]([C@@H](C)C(=O)c3ccc[nH]3)[C@H](C)C[C@H]4C)nc2c1C(=O)O (stereo partly specified)	-3%
NC(=O)c1cc([N+](=O)[O-])cc([N+](=O)[O-])c1	-23%
Cc1nccc2c1[nH]c1ccccc12	5%&-18%&-3%&4%&-6%
C/C=C(/C)C(=O)O[C@H]1C(C)=C2[C@H]([C@@H]1OC(=O)CCCCCCC)[C@@](C)(OC(C)=O)C[C@H](OC(=O)CCC)[C@@]1(O)[C@H]2OC(=O)[C@@]1(C)O	-4%&-17%
NC(=O)CN1CCCC1=O	?
Cc1nc2ccccc2c(=O)n1-c1ccccc1Cl	10%

4 entries from above in another layout.
compound | EPAC1 ag val
Cc1nccc2c1[nH]c1ccccc12 | 5%&-18%&-3%&4%&-6%
C/C=C(/C)C(=O)O[C@H]1C(C)=C2[C@H]([C@@H]1OC(=O)CCCCCCC)[C@@](C)(OC(C)=O)C[C@H](OC(=O)CCC)[C@@]1(O)[C@H]2OC(=O)[C@@]1(C)O | -4%&-17%
NC(=O)CN1CCCC1=O | ?
Cc1nc2ccccc2c(=O)n1-c1ccccc1Cl | 10%

Quoted from the listing:
`CC(C)(C)NC[C@H](O)COc1cccc2[nH]c(C#N)cc12` @ EPAC1 ag val: -6%
`NC(CP(=O)(O)O)C(=O)O` (stereo unspecified) @ EPAC1 ag val: -5%&-7%

(cont.)
SMILES	EPAC1 ag val
CC(=O)OC1C2CCC3C1(CC(O)[C@@]1(O)[C@@H](CC(O)C1(C)C)[C@]3(C)O)C[C@@]2(C)O (stereo partly specified)	26%
CC[C@]1(O)CC[C@H]2[C@@H]3CCC4=CCCC[C@@H]4[C@H]3CC[C@@]21C	-12%
CC1(C)N([O-])[N+](=O)C1(C)Br (stereo unspecified)	-7%
OC1CCCCC1N1CCC(c2ccccc2)CC1 (stereo unspecified)	6%&4%
COc1ccc2[nH]cc(CCN)c2c1	-2%&23%&-13%&-36%
COc1nn(CSP(=S)(OC)OC)c(=O)s1	9%
c1ccc(N2CCN(c3ccccc3)CC2)cc1	28%
COc1ccc(C(=O)c2c(C)n(CCN3CCOCC3)c3cc(I)ccc23)cc1	?

3 entries out of the list, sorted by molecular weight, highest first:
SMILES	EPAC1 ag val
CC(=O)OC1C2CCC3C1(CC(O)[C@@]1(O)[C@@H](CC(O)C1(C)C)[C@]3(C)O)C[C@@]2(C)O (stereo partly specified)	26%
CC1(C)N([O-])[N+](=O)C1(C)Br (stereo unspecified)	-7%
COc1ccc2[nH]cc(CCN)c2c1	-2%&23%&-13%&-36%

Assay outcomes (PubChem BioAssay)
